Source: PubChem (Johns Hopkins Ion Channel Center)
KCNQ2 enhance: potentiators of rat KCNQ2 potassium channel; AID 2239, 2010; CHO-K1 KCNQ2, FluxOR thallium flux fluorescence; active compounds read high; 310,000 tested, 0.54% active; Potassium voltage-gated channel subfamily KQT member 2 (Rattus norvegicus), O88943; B-score at 10 µM;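 active = fluorescence ratio B-score at least 3 SD of library B-scores, with initial fluorescence B-score within 3 SD, cut at about 5.3 in these data; same plate scores as AID 2156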;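 also: B-score of peak minus minimum over baseline fluorescence ratio after K+ and Tl+ stimulus; positive B-score means potentiation of KCNQ2 with more thallium influx and brighter signal; only the inactives scoring about 0 or higher are listed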
Target sequence (O88943 whole entry, looked up): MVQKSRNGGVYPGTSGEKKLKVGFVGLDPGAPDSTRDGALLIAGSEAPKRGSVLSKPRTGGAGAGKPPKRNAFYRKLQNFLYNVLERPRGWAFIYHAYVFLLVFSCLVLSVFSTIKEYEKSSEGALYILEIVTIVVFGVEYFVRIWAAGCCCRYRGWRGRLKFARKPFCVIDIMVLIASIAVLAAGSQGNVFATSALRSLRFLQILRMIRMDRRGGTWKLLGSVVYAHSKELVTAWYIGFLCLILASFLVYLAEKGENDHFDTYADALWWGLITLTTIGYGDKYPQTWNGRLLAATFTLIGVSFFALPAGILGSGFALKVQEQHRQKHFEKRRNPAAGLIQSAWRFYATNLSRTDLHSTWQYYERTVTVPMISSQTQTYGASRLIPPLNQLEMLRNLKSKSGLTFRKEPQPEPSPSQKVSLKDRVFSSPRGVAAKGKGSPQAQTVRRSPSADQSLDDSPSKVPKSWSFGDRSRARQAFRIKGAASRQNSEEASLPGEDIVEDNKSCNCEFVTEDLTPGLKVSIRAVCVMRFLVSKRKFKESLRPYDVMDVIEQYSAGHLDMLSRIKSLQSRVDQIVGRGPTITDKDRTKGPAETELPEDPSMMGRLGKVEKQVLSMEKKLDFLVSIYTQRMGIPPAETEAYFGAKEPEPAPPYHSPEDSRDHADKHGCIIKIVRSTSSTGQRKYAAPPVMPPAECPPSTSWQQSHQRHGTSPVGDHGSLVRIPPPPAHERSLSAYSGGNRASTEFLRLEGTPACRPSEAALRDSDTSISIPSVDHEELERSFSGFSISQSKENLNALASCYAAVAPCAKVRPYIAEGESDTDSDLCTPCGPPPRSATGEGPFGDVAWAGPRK
KCNQ2 enhance baseline: second read-out of KCNQ2 enhance, no call of its own (marks repeat the call); B-score; compound at 10 µM; measured here: initial fluorescence intensity artifact check;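 brightness before thallium and not channel activity; 0 = typical well and far values either way flag optical interference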
* hit, by the source's call. The list is partial. The share of hits here may be higher or lower than overall.

Preview, 2 compounds:
SMILES | KCNQ2 enhance | KCNQ2 enhance baseline
O=C(c1ccc(Cn2cc([N+](=O)[O-])cn2)o1)N1CCCC1 | 0.09 | 0.1
CC1CCCCN1CCCNC(=O)c1nn(C)c2c1CSc1ccccc1-2 (configuration not stated) | 0.02 | 2.3

All compounds of this part, from the first entry:
SMILES | KCNQ2 enhance | KCNQ2 enhance baseline
O=C(c1ccc(Cn2cc([N+](=O)[O-])cn2)o1)N1CCCC1 | 0.09 | 0.1
CC1CCCCN1CCCNC(=O)c1nn(C)c2c1CSc1ccccc1-2 (configuration not stated) | 0.02 | 2.3
Cc1cc(C)nc(NNC(=O)NC2CCCCC2)n1 | 0.12 | -1.59
NC(=O)CSc1nnc(NC(=O)C2CC(=O)N(c3ccc(F)cc3)C2)s1 (configuration not stated) | 0.45 | 0.04
Cc1nn(-c2ccccc2)c(C)c1NC(=O)COc1ccc(C#N)cc1 | 0.02 | -1.2
COc1ccc(C(=O)NCc2n[nH]c(=S)n2-c2ccccc2)cc1OC | 1.44 | -0.65
CC(C)(C)c1ccccc1NC(=O)NC1CCN(Cc2c(F)cccc2Cl)CC1 | 0.26 | 0.06
Oc1c(N=NC(=S)Nc2ccccc2F)c2ccccc2n1Cc1cccc(Cl)c1 | 4.09 | -0.19
CC(=O)Nn1c(COc2ccccc2C)nc2ccccc2c1=O | 1.03 | -2.8
CSc1ccccc1C(=O)C1CCCN(C(=O)NC(C)C)C1 (configuration not stated) | 0.43 | 0.4
Cn1c(=O)cc(OCC(=O)NCCC2=CCCCC2)c2ccccc21 | 0.04 | -1.79
COc1ccc2nc(NC(=O)c3ccccc3[N+](=O)[O-])sc2c1 | 0.08 | 0
O=C(NC1CCCCC1)c1ccc(COc2ccccc2)o1 | 0.03 | 1.22
Cc1cccc(-c2nnc(SCC3CNC(=O)O3)n2-c2ccc(Cl)cc2)c1 (configuration not stated) | 0.69 | 0.92
COc1ccc(-c2ccc(OC(=O)NC3CCS(=O)(=O)C3)cc2)cc1 (configuration not stated) | 0.04 | -0.59
COc1ccc(NC(=O)CSc2nccc(C)n2)cc1 | 0.7 | -0.07
CC(=O)Nc1ccc(S(=O)(=O)NCCC(=O)OC(C)C(=O)c2ccc(C)cc2)cc1 (configuration not stated) | 0.05 | 0.33
COc1ccc(CCN2CC(C(=O)NCCc3cnn(C)c3)CCC2=O)cc1 (configuration not stated) | 0.47 | -1.26
CCC(C)[C@H](NC(=O)NC1CC1)C(=O)O (some centres not stated) | 0.55 | 0.58
Cc1nc(-c2ccccc2O)n(S(=O)(=O)N(C)C)n1 | 0.77 | 0.09
CCc1ccc(-c2ccc3nnc(SCC(N)=O)n3n2)cc1 | 0.3 | -0.1
COc1cccc(C2CC(c3ccc(Cl)cc3Cl)n3nc(N)nc3N2)c1 (configuration not stated) | 0.3 | -0.06
C=CCNC(=O)c1ccccc1NC(=O)c1cccc2ccccc12 | 0.22 | 0.85
O=c1[nH]c(/C=C/c2ccccc2)c([N+](=O)[O-])c(=O)[nH]1 | 1.21 | -1.65
O=C(Nc1nc2ccc([N+](=O)[O-])cc2s1)c1ccco1 | 0.77 | -0.19
Cc1cc(C)n(-c2nnc(C)n2N)n1 | 0.6 | -0.48
NC(=O)c1cc2n(n1)C(C(F)(F)F)CC(c1ccco1)N2 (configuration not stated) | 0.66 | 1.75
CCCCc1ccc(NC(=S)Nc2ccc(Cl)c(S(=O)(=O)N(C)C)c2)cc1 | 1.72 | -1.27
Cn1nccc1C(=O)c1ccc(Cl)cc1 | 0.53 | 0.01
Cc1cccc(-c2noc(CN(C)C(=O)c3ccco3)n2)c1 | 0.41 | 0.81
O=C(Cc1ccccc1)NN1C(=O)C2C3C=CC(C3)[C@@H]2C1=O (some centres not stated) | 1.11 | -2.06
CC(C)Cc1ccc(S(=O)(=O)N2CCOCC2)cc1 | 1.26 | -0.95
COc1ccc(-n2cnc3cc(C(=O)NCC4CCCO4)ccc32)cc1 (configuration not stated) | 1.23 | 0.79
OCCC1CN(Cc2cccc3nonc23)CCN1C1CCCCC1 (configuration not stated) | 1.2 | -0.23
Nc1nc2c(ncn2C2C[C@H](O)[C@@H](CO)O2)c(=O)[nH]1 (some centres not stated) | 0.12 | 0.35
CCCn1c(SCC(=O)Nc2nnc(C)s2)nnc1C1CC1 | 0.24 | 0.82
O=C(COc1ccccc1)N1CCN(c2ncnc3c2cnn3-c2ccccc2)CC1 | 1.83 | 0.35
O=C(OCn1ncc(Cl)c(Cl)c1=O)c1cccc(C(F)(F)F)c1 | 0.22 | -0.47
C=CCn1c(SCC(C)=O)nc2sc3c(c2c1=O)CCC3 | 1.54 | 0.9
COc1ccc(C(=O)NCc2nnc(SCC(=O)N3CCCC3)o2)cc1OC | 0.26 | -0.7

Profiles, looked up by structure.
`COc1ccc(-n2cnc3cc(C(=O)NCC4CCCO4)ccc32)cc1` (configuration not stated) is listed as KCNQ2 enhance = 1.23; KCNQ2 enhance baseline = 0.79
`O=C(COc1ccccc1)N1CCN(c2ncnc3c2cnn3-c2ccccc2)CC1` is listed as KCNQ2 enhance = 1.83; KCNQ2 enhance baseline = 0.35

Going on with the list:
SMILES | KCNQ2 enhance | KCNQ2 enhance baseline
O=C(Nc1ccccc1)Nc1ccc2nnsc2c1 | 3.81 | -1.16
CCCNC(=O)C1CCC(CNS(=O)(=O)c2cccc3nsnc23)CC1 (configuration not stated) | 0.41 | 1.12
Cc1ccc(S(=O)(=O)N2CCN(CC(=O)N/N=C/c3ccc(Br)s3)CC2)cc1 | 0.04 | 0.89
O=C(Nc1ccc(F)cc1)N1CCN(C(=O)C2CCCO2)CC1 (configuration not stated) | 0.42 | -0.96
COc1ccc(NC(=O)CN(C2CCCCC2)S(C)(=O)=O)cc1Cl | 0.43 | 0.37
Cc1cc(=O)[nH]c(SCC(=O)Nc2nnc(SCc3ccccc3)s2)n1 | 0.11 | 0.05
Cc1ccsc1/C=C1/CN(C)Cc2c1nc1ccccc1c2C(=O)O | 0.02 | 2.9
C=C(C)Cn1c(CCNC(=O)c2ccco2)nc2ccccc21 | 1.48 | 0.24
COc1cc(C2NC(C(=O)O)Cc3c2[nH]c2ccccc32)cc(OC)c1OC (configuration not stated) | 0.67 | 1.07
O=C(NCc1cccc(Cl)c1)C1CCC(=O)N(CCCN2CCOCC2)C1 (configuration not stated) | 0.9 | 0.77
CC(C)=C1SC(N2CCN(c3ccc(Cl)cc3)CC2)=NC1=O | 0.13 | 1.3
Cc1cc(O)c(C(C)C)cc1NC(=O)Cn1nc(C)c2ccccc2c1=O | 0.01 | -1.79
CN(C)c1ccc(C(=S)N2CCCCCC2)cc1 | 0.61 | 0.37
N#Cc1cccc(S(=O)(=O)NCC(=O)OCC(=O)c2ccc[nH]2)c1 | 0.26 | 0.32
S=C(Nc1ccc2nccnc2c1)N1CCCC1 | 0.17 | -2.26
O=C(NCc1ccccn1)Nc1ccc(F)cc1F | 0.88 | 0.31
CCN1C(=O)N[C@@H](c2cccc(C(F)(F)F)c2)C(C(C)=O)=C1C | 0.41 | -0.57
S=C(NCCN1CCCCC1)Nc1ccccc1 | 1.84 | 0.59
CCN(CC)CCNC(=O)c1ccc(N)cc1 | 0.74 | 1.64
COc1ccc(NC(=O)c2ccccc2F)cc1Cl | 0.12 | -1.56
Cc1cccc(C)c1Nc1nnc(SCC(=O)NCc2ccco2)s1 | 0.61 | 0.76
Cc1ccc(-n2c(CNc3ccc(F)cc3)nnc2SCC(=O)O)cc1 | 0.9 | -0.48
CN(CC(=O)NC1(C)CCS(=O)(=O)C1)S(=O)(=O)c1ccc(Cl)cc1 (configuration not stated) | 0.64 | 0.26
CCCNC(=O)c1[nH]c(C)c(C(=O)OCC)c1C | 0.72 | 0.15
O=C(O)c1ccc2c(c1)C(=O)N(CCC1=CCCCC1)C2=O | 4.54 | -1.87
O=C(CCn1nnnc1CN1CCOCC1)N1CCC(c2ccccc2Cl)C1 (configuration not stated) | 1.21 | 0.78
Cn1c2c(c(=O)n(C)c1=O)C(c1cc3c(cc1Br)OCO3)CC(=O)N2 (configuration not stated) | 2.71 | -1.28
CNC(=S)N/N=C/c1c(C)nn(-c2cccc(Cl)c2)c1Cl | 0.85 | -0.49
COc1ccc(C(c2c(O)nc[nH]c2=O)c2c(O)nc[nH]c2=O)cc1 | 1.9 | -0.71
CC(C)CC(=O)Nc1nc(=S)ss1 | 2.4 | 0.2

Three compounds picked at random from the list so far:
SMILES | KCNQ2 enhance | KCNQ2 enhance baseline
O=C(O)c1ccc2c(c1)C(=O)N(CCC1=CCCCC1)C2=O | 4.54 | -1.87
Cc1cc(C)n(-c2nnc(C)n2N)n1 | 0.6 | -0.48
OCCC1CN(Cc2cccc3nonc23)CCN1C1CCCCC1 (configuration not stated) | 1.2 | -0.23

Next part:
SMILES | KCNQ2 enhance | KCNQ2 enhance baseline
CCN(CCO)c1ccc(N=Nc2cc(C)[nH]n2)cc1 | 0.21 | -0.16
CCN(CC)CCCN(C(=O)c1ccccc1C)c1nc(-c2ccc(OC)cc2)cs1 | 0.81 | -1.35
Cc1ccc(SCC(=O)Nc2ccc(N3CCN(c4ccccc4)CC3)c(F)c2)cc1 | 0.69 | 0.84
Cc1cnc(=O)[nH]c1SCC(=O)Nc1nccs1 | 0.37 | -0.11
C=CCn1cc(/C=C2/NC(=O)NC2=O)c2ccccc21 | 0.1 | 1.34
COC(=O)c1cc2oc3ccccc3c2n1CC(=O)Nc1ccccc1OC | 0.54 | -1.06
CC(C)N(C(=O)Cn1cc(SCC(=O)NCc2ccco2)c2ccccc21)C(C)C | 0.11 | -2.1
CNC(=O)CSc1nnc(-c2cccc(S(=O)(=O)N3CCOCC3)c2)n1-c1ccc(F)cc1 | 2.99 | 0
O=C(O)C1CCCCC1C(=O)NCCc1ccc(F)cc1 (configuration not stated) | 0.6 | 0.17
COc1ccc(S(=O)(=O)Nc2cccc(-n3cnnn3)c2)cc1 | 1.99 | 0.45
COc1ccccc1N(CC(=O)NC(C)(C)C)C(=O)c1ccc(Cl)nc1 | 2.48 | 1.65
COCCCn1c(C(=O)NCCC2=CCCCC2)cc2c(=O)n3ccccc3nc21 | 0.4 | -0.37
Cc1cc(NC(=O)c2cnn3c(C(F)(F)F)cc(-c4ccccc4)nc23)no1 | 0.11 | 1.11
CC1CCN(Cc2nnnn2-c2ccc(Cl)cc2)CC1 | 2.54 | 0.08
O=C(c1ccc(Br)o1)N1CCN(c2ccc(F)cc2)CC1 | 0.2 | 0.06
COc1ccc(NC(=O)Nc2ccccc2F)c([N+](=O)[O-])c1 | 0.04 | -1.17
CC(=O)Nc1cccc(NC(=O)C2C3C=CC(C3)C2C(=O)O)c1 (configuration not stated) | 0.95 | 0.7
CCc1nnc(NC(=O)c2cccc(S(=O)(=O)N3CCCC3)c2)s1 | 1.62 | 0.02
O=S(=O)(c1ccccc1)N1CCN(Cc2cccc(Br)c2)CC1 | 0.02 | -1.35
Cc1ccc(-n2c(C)cc(C=C3C(=O)CC(C)(C)CC3=O)c2C)cc1 | 0.94 | 0.39

Five compounds from above, ordered by the value under KCNQ2 enhance, highest first.
SMILES | KCNQ2 enhance | KCNQ2 enhance baseline
CC1CCN(Cc2nnnn2-c2ccc(Cl)cc2)CC1 | 2.54 | 0.08
COc1ccccc1N(CC(=O)NC(C)(C)C)C(=O)c1ccc(Cl)nc1 | 2.48 | 1.65
COCCCn1c(C(=O)NCCC2=CCCCC2)cc2c(=O)n3ccccc3nc21 | 0.4 | -0.37
Cc1cc(NC(=O)c2cnn3c(C(F)(F)F)cc(-c4ccccc4)nc23)no1 | 0.11 | 1.11
COc1ccc(NC(=O)Nc2ccccc2F)c([N+](=O)[O-])c1 | 0.04 | -1.17

Next part.
SMILES | KCNQ2 enhance | KCNQ2 enhance baseline
Cc1ccc(SCc2ccc(C(=O)NCc3cccnc3)cc2)cc1 | 0.09 | -0.68
CC(=O)Nc1ccc(S(=O)(=O)c2ccc(N)cc2)cc1 | 0.93 | 0.4
COc1ccc(/C=N/NC(=S)NCC2CCCO2)cc1 (configuration not stated) | 0.78 | 0.44
O=C(COC(=O)/C=C/c1cccc([N+](=O)[O-])c1)NCc1ccco1 | 0.59 | -1.01
CN1CCN(c2ccc([N+](=O)[O-])cc2/C=N/NC(=O)c2ccc(F)cc2)CC1 | 0.63 | -1.36
O=C(c1ccc(Cl)c(S(=O)(=O)N2CCOCC2)c1)N1CCCCCC1 | 0.18 | -1.03
CC(C)(C)c1ccc(-c2noc(-c3ccno3)n2)cc1 | 0.79 | 0.54
COc1ccc(N2CCN(c3nc4c(c(=O)n(C)c(=O)n4C)n3CCCc3ccccc3)CC2)cc1 | 0.73 | -0.99
O=c1c2ccccc2nc2n1C(CSCc1ccccc1)CS2 (configuration not stated) | 1.58 | 0.2
COc1ccccc1C1C(C#N)=C(N)Oc2c1c(-c1ccccc1)nn2-c1ccccc1 (configuration not stated) | 0.77 | -1.16
CNC(=S)NNC(=O)c1ccc(C(C)(C)C)cc1 | 0.03 | -0.36
O=C(Nc1ccccc1)C1=C[C@@H](c2coc3ccccc3c2=O)C[C@@H](OCc2ccc(CO)cc2)O1 | 0.81 | 0.87
COCCN1C(=O)N[C@@H](c2cccc(C(F)(F)F)c2)[C@H](C(=O)OC)[C@H]1C | 0.08 | -2.28
CC(=O)c1ccc(Sc2ccccc2)cc1 | 1.29 | -1.82
CCCC(=O)c1ccc2c(c1)OCCO2 | 0.16 | -1.11
COc1ccc(/C=N/NC(=O)c2cc(=O)[nH]c3ccccc23)cc1OC | 1.06 | -1.89
COc1cccc(NC(=O)CN(C)C(=O)c2ccc(-c3cccc(C(F)(F)F)c3)o2)c1 | 0.83 | 0.02
O=C1CC(N2CCN(Cc3ccccc3)CC2)C(=O)N1CCc1ccccc1 (configuration not stated) | 0.92 | -0.73
CN(Cc1ccccc1)c1ccc(N2C(=O)CCC2=O)cc1[N+](=O)[O-] | 0.24 | 1.36
Cc1csc2ncc(C(=O)N3CCCc4ccccc43)c(=O)n12 | 0.43 | 0.75
